gsp antagonist = antagonists of gsp mutant (McCune-Albright syndrome). gsp-mutant cells, cAMP HTRF, 30 min; control for the full effect not named in the record. Potency, µM (highest dose often 76.9 µM), for the others: top-dose activity change, negative = inhibition, most hits filed as inhibitors. 0.4% of 340,000 active; active = falling curve of any shape with a large fitted effect; inconclusive = falling curve, mostly with a smaller effect; inactive = flat or rising curve; cell line not stated here;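 also: intracellular cAMP measured with PDE inhibitor Ro 20-1724 present during compound exposure; potency is read from the fitted curve at half-maximal effect; % is scaled to controls: 0 for no effect and ±100 for the full control effect; nearly all actives have a fitted effect of over 65% in size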
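HTRF cAMP measurement after 30 min RT detection following 30 min, 37C compound treatment alongside […] (added as 300 uM solution) in G418-selected cells seeded at 2000/well and grown 16–24 h.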
CtBP-E1A inh = CtBP/E1A binding inhibition. AlphaScreen GST-E1A/His-CtBP binding, 1536-well; active compounds read low; control for the full effect not named in the record. activity change, % (no concentration beside the values). 0.49% of 340,000 active. AID 651724; in the data active means activity change below about -65%; inconclusive means about -30% to -65%; inactive means above about -30%; also: % is scaled to controls: 0 for no effect and ±100 for the full control effect
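Protein mix (5X: 125 nM each GST-E1A, His-CtBP) was incubated with pinned compound 2 h at 37 deg C in dark, in 50 mM Tris pH 8.0 buffer with 300 mM NaCl. Glutathione donor and nickel acceptor beads followed; AlphaScreen signal read after 1 h.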
gsp agonist = agonists of gsp mutant (McCune-Albright syndrome) | gsp mutant cells, cAMP HTRF, 30 min; control for the full effect not named in the record | Potency, µM (series often up to 76.9 µM), without a hit: top-dose activation (cAMP increase), hits mostly activators | 0.13% of 340,000 active | AID 624287; active = well fitted activation curve with a large enough effect; inconclusive = small, poorly fitted or top-dose-only effect, or another doubt; inactive = no such curve, though single readings can be large or run the other way; cell line not stated here;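 also: phosphodiesterase inhibitor Ro 20-1724 added with compounds to block cAMP breakdown; potency is read from the fitted curve at half-maximal effect; nearly all actives have a fitted effect of over 60% in size; about a fifth of the inactives were tested at one dose only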
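Cells in DMEM/10% FBS with G418 were pretreated with compounds in DMSO plus […] (300 uM stock) for 30 min at 37C. cAMP was measured by HTRF (cAMP-d2 plus anti-cAMP antibody-K) after 30 min at room temperature.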
Sfp inh = Sfp phosphopantetheinyl transferase inhibition; Biochemical Sfp PPTase activity, qHTS; Q9F4F7; 3.5% of 310,000 active; Potency, µM, for the others: max response, negative = inhibition, most hits filed as inhibitors; active = well fitted inhibition curve with a large enough effect; inconclusive = small, poorly fitted or top-dose-only effect, or another doubt; inactive = no such curve, though single readings can be large or run the other way;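 also: the enzyme is Sfp with the accession as filed and its product quenches rhodamine fluorescence; potency is read from the fitted curve at half-maximal effect; 0% = enzyme reaction without inhibitor and -100% = no enzyme wells; top concentration of the series not given in the record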
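After 15 min at room temperature with compound, 15 nM Sfp received 5 uM rhodamine-CoA plus 12.5 uM BHQ-2-ybbR (50 mM Hepes pH 7.6, 10 mM MgCl2). Rate came from the fluorescence difference over 30 min, ex 525/em 598 nm.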
ClpP mod = qHTS Assay for Activators of ClpP. ATP-dependent Clp protease proteolytic subunit (Bacillus subtilis (strain 168)), P80244. 1.9% of 340,000 active. purified B. subtilis ClpP, FRET peptide cleavage, 20 min. Potency, µM (series often up to 57.5 µM), for the others: at the highest dose activity change, negative = active; active = well fitted falling curve with a large enough effect; inconclusive = small, poorly fitted or top-dose-only effect; inactive = no such curve, though single readings can be large or run the other way; also: potency is read from the fitted curve at half-maximal effect; the source files actives as falling curves though it sought activators and does not explain the sign; nearly all actives have a fitted effect of over 65% in size; many hits overshoot -100%
Target sequence (P80244 whole entry, looked up): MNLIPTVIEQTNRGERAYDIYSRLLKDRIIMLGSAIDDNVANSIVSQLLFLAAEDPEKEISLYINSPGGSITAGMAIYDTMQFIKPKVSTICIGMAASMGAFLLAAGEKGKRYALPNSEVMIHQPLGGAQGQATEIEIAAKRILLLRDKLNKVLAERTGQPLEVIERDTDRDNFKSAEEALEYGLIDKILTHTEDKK
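Purified B. subtilis ClpP, 10 microg/mL final in Tris/HCl pH8 with KCl, BSA, glycerol and Tween-20, cleaved an Abz/nitrotyrosine-quenched decapeptide. Fluorescence (ex 320, em 430) was read at 0 and 20 min at room temperature. Delta was normalized to 5.8 microM ADEP and DMSO/no-enzyme controls.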
Menin-MLL FL inh = displaces fluorescein MLL peptide from human menin. 290,000 tested, under 10 active. FP activity change, % at 61.4 µM. Fluorescence polarization, fluorescein-MLL peptide displacement from menin. AID 1766; inconclusive = falling polarisation curve, or a change in total fluorescence; inactive = total fluorescence flat and polarisation flat or rising; no compound was filed as active; the % refers to the polarisation; negative = inhibition;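 also: % of control where 0% means no effect; inhibitors lower the polarisation; unlabelled MLL peptide was the positive control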
TRPV1 potentiator = human TRPV1 potentiation. TRPV1-expressing cells, Fluo-8 calcium influx, capsaicin EC20 potentiation; host cell line not named in the record; control for the full effect not named in the record. potentiation, % at 8.33 µM. 0.02% of 320,000 active. AID 540277; active means potentiation above 80%; inconclusive means 30% to 80%; inactive means below 30%; also: 0% is about no effect
Target sequence (Q8NER1 whole entry, looked up): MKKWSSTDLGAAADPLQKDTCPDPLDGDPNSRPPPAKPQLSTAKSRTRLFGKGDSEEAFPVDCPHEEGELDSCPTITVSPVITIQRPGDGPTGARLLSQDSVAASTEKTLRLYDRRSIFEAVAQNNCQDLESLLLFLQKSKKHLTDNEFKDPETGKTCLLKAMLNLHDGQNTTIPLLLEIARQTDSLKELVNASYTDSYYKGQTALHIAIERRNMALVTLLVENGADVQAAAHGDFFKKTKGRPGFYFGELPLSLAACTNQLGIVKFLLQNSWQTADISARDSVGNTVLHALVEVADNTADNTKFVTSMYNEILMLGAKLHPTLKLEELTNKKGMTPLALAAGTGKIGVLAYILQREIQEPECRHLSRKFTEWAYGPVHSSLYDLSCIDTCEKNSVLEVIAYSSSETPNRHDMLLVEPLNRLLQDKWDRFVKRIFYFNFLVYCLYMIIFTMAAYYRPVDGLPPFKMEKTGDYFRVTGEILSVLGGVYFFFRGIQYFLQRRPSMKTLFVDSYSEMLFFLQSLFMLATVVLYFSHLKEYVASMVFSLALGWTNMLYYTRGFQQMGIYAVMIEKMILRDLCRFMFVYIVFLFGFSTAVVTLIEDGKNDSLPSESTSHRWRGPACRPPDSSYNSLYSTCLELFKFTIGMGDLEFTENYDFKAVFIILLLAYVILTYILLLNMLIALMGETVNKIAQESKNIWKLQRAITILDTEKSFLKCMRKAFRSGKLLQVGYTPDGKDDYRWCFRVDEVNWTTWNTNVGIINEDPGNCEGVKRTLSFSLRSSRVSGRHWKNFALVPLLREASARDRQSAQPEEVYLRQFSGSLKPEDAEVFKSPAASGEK
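Cells expressing TRPV1 were dye-loaded with Fluo-8 and read kinetically: 10 s baseline, 3 min after compound (agonist portion), then 2 min after EC20 capsaicin (allosteric enhancer portion). Calcium-bound dye fluorescence at 480/520 nm.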
* marks the source's active call; other numbers are inactive results; ? = inconclusive; nt = no result given; & = joins results of further samples; [ ] = dose if it differs, or a comment.

SMILES | gsp antagonist | CtBP-E1A inh | gsp agonist | Sfp inh | ClpP mod | Menin-MLL FL inh | TRPV1 potentiator
COc1cc(OCc2ccccc2)c2c(CCC(=O)O)cc(=O)oc2c1 | -11% | -21 | 27% | nt | -0.8% | nt | nt
CC(NC(=O)NNC(=O)c1ccncc1)(C(F)(F)F)C(F)(F)F | -19% | 14 | -43%[15.4 µM] | -16% | nt | 0.1 | -19
Cc1ccc(CNC(=O)C(=O)NCC2OCCN2C(=O)c2ccc(Cl)cc2)cc1 (stereo not given) | 3% | -11 | -13% | 3% | 1.0% | -0.8 | -17
Cc1cc2oc(C(=O)Nc3ccc(S(=O)(=O)Nc4ncccn4)cc3)cc(=O)c2cc1Cl | -10% | -6 | 2% | -1% | -0.7% | 0.3 | -5
O=C(c1ccccc1)c1sc(N2CCCCCC2)nc1-c1ccccc1 | ? | 16 | 5% | -4% | -2.5% | 0.8 | -15
CSc1ncc2ncn(C3OC(CO)C(O)C3O)c2n1 (stereo not given) | 10% | 8 | -17%[15.4 µM] | 7% | nt | -0.3 | 6
O=c1[nH][nH]c(-c2ccccc2O)c1C(C[N+](=O)[O-])c1ccc(Cl)cc1Cl (stereo not given) | 9% | -3 | 1% | 24% | -2.8% | 7.0 | 12
COCCCNC(=O)C1CCC(CNS(=O)(=O)c2ccc(Cl)cc2)CC1 (stereo not given) | -6% | -15 | -2%[15.4 µM] | 24% | nt | -0.5 | -4
CN(NC(=O)Nc1ccc(Cl)cc1)c1ncc(C(F)(F)F)cc1Cl | -18% | 12 | ? | nt | -2.0% | nt | nt
COc1ccc(OC)c(NC(=O)CSc2nnc(C3CCCCC3)n2-c2ccccc2)c1 | -15% | -5 | 2% | 3% | -2.0% | -1.3 | 19
COc1ccc(NS(=O)(=O)c2cccc(C(=O)N/N=C/c3cn(-c4ccccc4)nc3-c3ccc(OC)cc3)c2)cc1 | -21% | 10 | ? | 13% | ? | 2.9 | 7
COc1cc(NC(=O)c2noc3c2CCCC3)c(OC)cc1Cl | 6% | -4 | 13% | 8% | -0.8% | 1.5 | 12
CCOC(=O)[C@@H](C)N(Cc1ccc(OC)cc1)S(=O)(=O)N(Cc1ccccc1)[C@H](C(=O)OC)C(C)C | -16% | 15 | -14% | nt | -0.2%&1.1% | nt | -2
CCN(CC)S(=O)(=O)c1ccc2c(c1)c(=O)c(C(=O)NCCc1ccc(OC)c(OC)c1)cn2C | -13% | 7 | 19% | 17% | -0.1%&0.7% | 4.6 | 5
CC(C)(C)C1=CC(=O)C(=O)C(C(C)(C)C)=C1 | 11% | nt | -5% | 1.1µM* | -0.3% | -1.2 | 0
CC(c1ccccc1)N1C(=O)c2ccccc2C1(O)Cc1ccccc1 (stereo not given) | -4% | -9 | -7% | 3% | nt | -0.7 | 5
Cc1[nH]nc2c1C(c1cccc(OC(=O)N3CCOCC3)c1)C(C#N)=C(N)O2 (stereo not given) | 0% | 0 | -82%[inhibitor] | 16% | -0.9% | 0.7 | 17
Cc1ccccc1C(=O)N=c1c(C#N)cc2c(=O)n3cccc(C)c3nc2n1Cc1ccco1 | nt | nt | nt | 50µM* | nt | ? | 3
CCOc1ccc(N2CC(C(=O)NCCN3C(=O)S/C(=C\c4ccc(OC)c(OC)c4)C3=O)CC2=O)cc1 (stereo not given) | -8% | 0 | -9% | 9% | -10% | -1.2 | -11
O=C(/C=C/c1ccc2c(c1)OCO2)NCC1CCCO1 (stereo not given) | -9% | 13 | 4%[15.4 µM] | 15% | nt | -1.7 | -9
CN1C(=O)Cc2cc(S(=O)(=O)NCc3c(F)cccc3Cl)ccc21 | 4% | -5 | 6% | 8% | nt | 1.0 | 4
Nc1c(Cl)nc(-c2ccccc2)nc1Cl | -8% | nt | -35%[inhibitor] | 8% | -1.2% | -1.8 | -2
Cc1ccccc1OC(C)C(=O)NCCC1=CCCCC1 (stereo not given) | -6% | 9 | 20% | 11% | -0.5% | nt | 7
Cn1ncc2c(=O)n(/N=C/c3ccccc3)cnc21 | -5% | nt | -44%[inhibitor] | -12% | 0.3% | 12 | -11
O=C(COC(=O)CCCOc1ccc(Cl)cc1Cl)NCc1ccccc1 | -1% | -9 | 9% | -7% | 1.3% | 4.1 | 2
COc1ccc(CN2CC(C(=O)NCCc3ccc(Cl)cc3)CC2=O)cc1 (stereo not given) | -5% | -5 | -35%[inhibitor] | 3% | -1.0% | 3.0 | -6
Cc1cc(C(=O)COC(=O)c2ccc(O)cc2O)c(C)n1-c1ccccc1 | ? | 0 | -47%[inhibitor] | nt | -1.8% | nt | -8
Cc1cc(C)c[n+](CC(=O)c2cc3ccccc3oc2=O)c1 | 11% | -4 | 0% | 19% | 28µM* | 2.5 | 16
Cn1nc(C(=O)Nc2cccc(C(F)(F)F)c2)ccc1=O | 0% | 9 | 25% | 21% | 0.4% | 1.1 | -34
CC1(CCc2ccccc2)NC(=O)N(CC(=O)Nc2ccc(OC(F)F)cc2)C1=O (stereo not given) | -11% | 6 | -5% | nt | -1.6% | nt | nt
CC(=O)c1cc(F)c(N2CCN(CCC#N)CC2)cc1C | 11% | 1 | 2% | 0% | -1.9% | 0.8 | 2
CC(NC(=O)/C(=C\c1ccco1)NC(=O)c1ccco1)C(=O)O (stereo not given) | 4% | 7 | -5%[15.4 µM] | -13% | 0.8% | 0.4 | 3
COc1cc(CNCCN2CCOCC2)ccc1OCc1ccccc1Cl | 14% | -1 | 27% | 8% | 0.3% | 4.5 | -2
CC1(C)CC(=O)C(C=Nc2cccnc2)=C(O)C1 | 1% | 2 | 16% | -14% | 7.7% | 0.3 | 12
CCOC(=O)Cc1csc(N/N=C/c2ccc(C(F)(F)F)cc2)n1 | 5% | 8 | -3%[15.4 µM] | -7% | 0.2% | 3.3 | 17
COc1ccccc1/C=N/OCC(=O)NCc1ccc2c(c1)OCO2 | 3% | 8 | 34% | -7% | -8.1% | 3.0 | -19
CCOC(=O)C1CCCN(C(=O)C(C)(C)Oc2ccc(Cl)cc2)C1 (stereo not given) | -3% | 15 | 9%[15.4 µM] | -4% | nt | -3.0 | -11
CC(=O)CSc1ncnc2sc3c(c12)CCC(C)C3 (stereo not given) | 3% | 26 | 14% | -21% | 0.1% | 1.6 | 18
CCCOC(=O)NC(CC)COC(=O)Nc1cccc(C)c1C (stereo not given) | -3% | 5 | -7% | 18% | -0.3% | 5.1 | 12
CC(C)c1nnc(NC(=O)c2ccc(S(=O)(=O)N3CCOCC3)cc2)s1 | 7% | 9 | -47%[inhibitor] | 2% | 0.0% | -0.6 | -21
CCc1cc(=O)n2[nH]c(C)c(-c3ccccc3OC)c2n1 | -5% | -19 | -30% | 13% | -22% | -1.1 | 3
CCOC(=O)C1(CCCc2ccccc2)CCN(C(=O)CCn2cnnn2)CC1 | 3% | 5 | -9% | 7% | 2.4% | 1.3 | -19
CC1Nc2ccccc2C(=O)N1NC(=O)c1ccc(Br)cc1 (stereo not given) | 9% | 6 | 3%[15.4 µM] | -13% | nt | 0.2 | ?
Cc1ccc(N2C(=O)c3cccc4c(N5CCN(C)CC5)ccc(c34)C2=O)c2cccnc12 | -5% | 5 | 21% | 8% | -0.3% | ? | 0
O=C1NC(=O)C2C1C(c1ccccc1)N1C3C(=O)NC(=O)C3C(c3ccccc3)N21 (stereo not given) | 13% | 10 | 6% | 6% | 0.5% | 3.0 | 10

As a working copy, 3 of the compounds above.
SMILES | gsp antagonist | CtBP-E1A inh | gsp agonist | Sfp inh | ClpP mod | Menin-MLL FL inh | TRPV1 potentiator
CCOC(=O)C1CCCN(C(=O)C(C)(C)Oc2ccc(Cl)cc2)C1 (stereo not given) | -3% | 15 | 9%[15.4 µM] | -4% | nt | -3.0 | -11
CC(=O)CSc1ncnc2sc3c(c12)CCC(C)C3 (stereo not given) | 3% | 26 | 14% | -21% | 0.1% | 1.6 | 18
CCCOC(=O)NC(CC)COC(=O)Nc1cccc(C)c1C (stereo not given) | -3% | 5 | -7% | 18% | -0.3% | 5.1 | 12

Later entries
SMILES | gsp antagonist | CtBP-E1A inh | gsp agonist | Sfp inh | ClpP mod | Menin-MLL FL inh | TRPV1 potentiator
O=c1c2ccccc2c(C=Nc2cccc(O)c2)c(O)n1-c1ccc2c(c1)OCO2 | -8% | 2 | -80%[inhibitor] | -13% | -1.7% | 1.5 | -4
Cc1c(C)n(Cc2ccc(Cl)cc2)c2ccc(C(=O)NCCCN3CCOCC3)cc12 | 12% | -26 | 1% | ? | ? | -1.8 | 2
Cc1ccc(NC(=S)N(CCCN2CCOCC2)Cc2ccccn2)cc1Cl | -12% | 5 | 0%[15.4 µM] | 32µM* | 0.4% | nt | 25
CC1CCN(c2ccccc2NC(=O)c2ccc(Br)o2)CC1 | -2% | -6 | 9% | -3% | -4.0% | nt | 6
Cc1ccc(C(=O)NCc2ccc(N3CCN(C(=O)OC(C)(C)C)CC3)cc2)cc1 | 6% | -2 | -51% | 26% | 1.1% | 6.7 | 1
O=C(Nc1nnc(C2CC2)s1)c1ccc(S(=O)(=O)c2ccccc2)cc1 | 3% | 2 | -7% | 13% | 9.0% | 2.5 | -19
C=CC(C)(O)CCC=C(C)C (stereo not given) | 6% | -3 | -36% | 17% | -0.4% | -1.8 | 5
C=CCn1c(-c2oc3nc(-c4ccccc4)cc(-c4ccccc4)c3c2N)n[nH]c1=S | -5% | 0 | 12% | -29% | ? | 9.4 | 3
O=C(CCCl)N1c2ccccc2C=Cc2ccccc21 | 0% | nt | 3% | nt | -2.1% | nt | nt
CC(Sc1nc2ccc(C(=O)c3ccccc3)cc2[nH]1)C(=O)O (stereo not given) | 0% | 5 | 7%[15.4 µM] | 13% | -11% | -7.4 | -1
COC1CCN(C(=O)c2ccc(OC3CCN(Cc4ccccn4)CC3)cc2)CC1 | 13% | 10 | -5%[15.4 µM] | -5% | 1.4% | -7.4 | 0
O=c1c([N+](=O)[O-])cc(C(F)(F)F)cn1Cc1cccc(Cl)c1 | -4% | 3 | 3% | 3% | -0.6% | 4.9 | -21
O=C1NC(=S)N/C1=C/c1ccc2ccccc2c1 | 9% | nt | 15% | 16% | -4.9% | nt | -10

Screening results: PubChem BioAssay, National Center for Advancing Translational Sciences (NCATS)
